Screening data from PubChem BioAssay.
CapD inh: CapD enzyme inhibition | purified CapD enzyme, fluorescence intensity read-out; hits give low values; some hits fall short of the stated cut | z-score (no concentration beside the values) | 0.23% of 140,000 active;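 active = z-score under -4 in either of two replicates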;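 note: stock transfer was 100 nL into about 40 µL; score is relative to mean and spread of the plate; one replicate is shown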
AID504770: growth inhibitors of E. coli YBA685 in a screen for V. cholerae RctB (chromosome II replication) inhibitors; 0.27% of 130,000 active; z-score (concentration not given with the values); E. coli YBA685 rctB-dependent plasmid, OD600 growth, 3 h; hits give low values;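 active = z-score under -2 on both plates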;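 note: wells of about 30 µL received 100 nL stock; score is relative to mean and SD of the test wells; the first replicate is given; strong numbers were not always called active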
* marks the source's active call; other numbers are inactive results; x = no result given; & = joins results of further samples. These rows are one share of the data (hit frequency here may not be typical).

SMILES | CapD inh | AID504770
COc1ccccc1NC(=O)c1sc(=S)n(-c2cc(C)ccc2F)c1N | -0.23 | x
COc1ccc(C)cc1S(=O)(=O)NC1CC1 | -0.24 | -0.7
CO[C@@H]1[C@@H](OC2OC(C)C(OC3CC(C)(O)C(OC(=O)CC(C)C)C(C)O3)C(N(C)C)C2O)[C@@H](CC=O)C[C@@H](C)[C@@H](O)/C=C/C=C/C[C@@H](C)OC(=O)C[C@H]1OC(C)=O (stereo not given in full) | 0.01 | x
CSc1nc2c(sc(=S)n2-c2ccccc2C)c2nc3ccccc3n12 | -0.24 | x
O=C(/C=C/c1ccc2c(c1)OCO2)N/N=C/c1c[nH]c2cc(OCc3ccccc3)ccc12 | 0.58 | x
CC1CCN(c2cnnc3c(Cl)cccc23)CC1 | -1.3 | 0.4
O=C(OCCN1C(=O)c2cccc3c(N4CCOCC4)ccc(c23)C1=O)c1ccccc1[N+](=O)[O-] | -0.11 | x
CCOC(=O)C1=C(C)N=c2s/c(=C\c3cc([N+](=O)[O-])ccc3N3CCOCC3)c(=O)n2C1c1ccc(OC)c(OC)c1 (stereo not given) | -0.36 | x
COc1ccc2c(c1)C(=O)C(CC1(O)C(=O)Nc3ccccc31)CC2 (stereo not given) | 0.74 | -1.4
Cc1cc(C)n2nc(C(=O)OCC(=O)N(C3CCCCC3)C3CCCCC3)nc2n1 | x | 2.5
O=C(Nc1c(-c2ccccc2)nc2ccc(Cl)cn12)c1ccc(Cl)cc1 | -0.25 | x
COCCNC(=O)CCC(=O)N(C1CC1)C1CCN(C(C)=O)CC1 | -0.56 | x
COc1ccc(C(NC(C)=O)c2ccc(OC)cc2)cc1 | x | -0.45
Cc1onc(-c2ccccc2)c1C(=O)NCc1ccc(F)cc1 | 0.32 | -0.05
CCOC(=O)c1cnc2c(C#N)cnn2c1N | 0.23 | 1.9
O=C(COc1ccccc1)Nc1cc(S(=O)(=O)C(F)(F)F)ccc1Cl | -0.53 | -0.25
Cc1ccc(CCOC(=O)N(C)CCc2ccccn2)cc1 | -0.025 | x
O=C1CCCCC1Sc1nnc(-c2ccco2)o1 (stereo not given) | x | -0.15
N#Cc1cc2c(nc1SC1CC(=O)N(c3ccccc3)C1=O)CCC2 (stereo not given) | -0.085 | x
CN(C)c1cccc(C(=O)OC2CCCCC2=O)c1 (stereo not given) | x | 0.6

(listing goes on)
SMILES | CapD inh | AID504770
CNC(=S)Nc1cc(C(F)(F)F)cc(C(F)(F)F)c1 | -0.34 | x
Cc1ccc(-n2cc(-c3ccc4c(c3)OCO4)[nH]c2=S)cc1 | 0.55 | -1
COc1ccccc1Oc1ccc(S(=O)(=O)NCc2ccccn2)cc1 | -0.63 | -0.1
Cc1ccc(C)c(NC(=O)CCN2CCc3ccccc3C2)c1 | 0.39 | -1.3
CCOC(=O)c1[nH]c(CSc2nnc3ccccn23)c(C(=O)OCC)c1C | x | -0.05
COCc1cc(C)nc2sc3c(=O)[nH]c(-c4ccccc4O)nc3c12 | -0.65 | -0.65
O=C1c2ccccc2C(=O)N1CNc1ccc(N2CCOCC2)cc1 | -0.22 | x
O=C(NCc1ccccc1)c1cc(Cl)c(=O)n(Cc2ccc(Cl)cc2)c1 | 0.71 | x
Cc1c(C)c(C)c(S(=O)(=O)Nc2cc(C(F)(F)F)cc(C(F)(F)F)c2)c(C)c1C | -0.07 | x
CN(Cc1nc(-c2ccccc2)no1)C(=O)COc1ccccc1 | 0.47 | -0.65
COCc1cc(=O)[nH]c(SCCS(=O)(=O)c2ccc(C)cc2)n1 | 0.39 | 0.3
CCSc1nc(C)c(C)c(=O)[nH]1 | -0.3 | -0.55
Cc1cccc(-n2ncc3c(N4CCN(c5ccccc5F)CC4)ncnc32)c1 | -0.04 | x
Cc1c(CC(Cl)(Cl)Cl)c2c(n1N(C)C)CC(C)(C)CC2=O | -0.34 | x
CSc1nnc2c3ccccc3c3ccccc3c2n1 | 0.43 | -0.25
COc1ccc(N2C(=O)C(N3C(=O)c4ccc([N+](=O)[O-])cc4C3=O)C2c2ccc(F)cc2)cc1 (stereo not given) | -0.22 | x
O=[N+]([O-])c1cccc(Cl)c1N1CCN(S(=O)(=O)c2cccc3nsnc23)CC1 | -0.54 | x
O=[N+]([O-])/C(C(Cl)=C(Cl)Cl)=C(/Cl)Sc1ccccc1 | -0.95 | x
CCc1ccccc1NC(=O)CSc1nc2ncccc2[nH]1 | 2.1 | -0.75
CC(C(=O)N1CCCCC1)N1CCC(N2CCCCC2)CC1 (stereo not given) | x | -0.15

The list continues:
SMILES | CapD inh | AID504770
COc1ccccc1C(=O)CSC1=NCCS1 | x | 0.75
c1cc2nncn2nc1N1CCCCC1 | -0.6 | -1.9
COc1cccc(NC2SC(=O)N(c3ccccc3)C2=O)c1 (stereo not given) | 0.33 | 1.5
O=S(=O)(NCCC12CC3CC(CC(C3)C1)C2)c1cc(Cl)ccc1Cl | 0.095 | -0.5
CCCCS(=O)(=O)NCc1ccc(OC)c(OC)c1 | x | 1.9
O=C(CCc1cc(Cl)no1)N1CCC(c2c[nH]c3ccccc23)(c2c[nH]c3ccccc23)CC1 | -0.025 | -0.45
CN(C(=O)CSc1ccc2c(c1)OCCO2)c1ccccc1 | x | 1.2
CCCN1C(=O)/C(=c2\sc3n(c2=O)C(c2ccc(OC(=O)c4ccco4)cc2)C(C(=O)OCC)=C(C)N=3)c2ccccc21 (stereo not given) | -0.39 | x
N#CCc1c(Cl)cccc1Cl | x | -0.7
CCc1ccc(NC(=O)Nc2cc3sccc3n2C)cc1 | 1.2 | -0.4
CCC(C)NC(=O)c1ccc(NC2=NC3CS(=O)(=O)CC3S2)cc1 (stereo not given) | 58 | 2.2
O=C(Nc1cccc(Cl)c1)C1=CC=CN2CCS(=O)(=O)N=C12 | x | 0
CCOC(=O)C1=C(O)C(=O)N(Cc2ccco2)C1 | 1.1 | -0.2
Cc1oc2cc(O)ccc2c(=O)c1-c1nc2ccccc2n1C | 4.9 | -0.05
O=S(=O)(c1ccccc1)N1CCN(c2nc3ccc(Cl)cc3s2)CC1 | -0.14 | x
COc1ccccc1CNCC(O)(c1ccccc1)c1ccc(F)cc1 (stereo not given) | -0.21 | x
COc1ccc(CCCOC(=O)NNC(=O)c2csc(-c3ccccc3)n2)cc1 | 0.82 | x
COC(CNC(=S)Nc1cccc(C)c1)OC | 0.37 | -0.55
CC1CCCC/C1=N\NC(=O)CC#N (stereo not given) | x | 1
Cc1c(C(=O)N2CCN(c3cccc(Cl)c3)CC2)sc2ncn(CC(=O)N3CCCC(C)C3)c(=O)c12 (stereo not given) | -0.33 | x

Five entries drawn at random from the list so far, as already listed:
SMILES | CapD inh | AID504770
CN(C(=O)CSc1ccc2c(c1)OCCO2)c1ccccc1 | x | 1.2
COC(CNC(=S)Nc1cccc(C)c1)OC | 0.37 | -0.55
O=C(CCc1cc(Cl)no1)N1CCC(c2c[nH]c3ccccc23)(c2c[nH]c3ccccc23)CC1 | -0.025 | -0.45
c1cc2nncn2nc1N1CCCCC1 | -0.6 | -1.9
COc1ccccc1C(=O)CSC1=NCCS1 | x | 0.75

Further results
SMILES | CapD inh | AID504770
Cc1c(-c2ccccc2)[n+](=O)c2c(n1[O-])CCC2 | -0.35 | 0
COC(=O)CSc1nc(C(C)(C)C)cc(C(F)(F)F)n1 | x | 0.35
Cc1cc(C(=O)NCCCN2CCN(c3cc(Cl)ccc3C)CC2)n(-c2ccccc2)n1 | 0.1 | -0.25
CN(C(=O)COc1cccc(Br)c1)C1CCS(=O)(=O)C1 (stereo not given) | -0.81&-0.34 | 1.6&1.8
C=C1N(CCCCCCCCCCCC)C(=O)OC12CCCCC2 | -0.17 | x
CCOC(=O)c1c[nH]c2ccc(Cl)cc2c1=O | -0.73&0.36 | -0.8
CC(C)Cc1ccc(CC(=O)O)cc1 | x | -0.15
N#C/C(=C\c1cn(-c2ccccc2)nc1-c1cccs1)c1ccc(C#N)cc1 | -0.2 | -0.4
CCSc1nnc(NC(=O)/C=C/c2ccccc2)s1 | 15 | -0.1
COc1ccc2nc(NCc3cccnc3)sc2c1 | 0.51 | 0.85
N#CC(C(=O)c1ccco1)c1nc2ccccc2[nH]1 (stereo not given) | 0.97 | 0.25
Cc1ccc(NC(=O)CN(C)C(=O)CSc2nc3ccc(Cl)cc3o2)cc1 | x | -0.3
Cc1cc(C)c(N2CCCC2C(=O)Nc2cccc(C(F)(F)F)c2)c(C)c1 (stereo not given) | 0.56 | 0
CCCC(C)C(=O)N1CC(C)CC(C)C1 (stereo not given) | -0.24 | -0.05
O=c1c2ccccc2[nH]c(=S)n1-c1cccc(C(F)(F)F)c1 | -0.14 | -0.05
O=C(CSc1nnc(-c2ccccc2F)n1Cc1ccccc1)Nc1cccc2nsnc12 | x | -0.1
O=c1[nH]nc(SCCS(=O)(=O)c2ccc(F)cc2)n1C1Cc2ccccc2C1 | 0.69 | -0.15
Cc1cc2nc(-c3cccc(NC(=O)c4cccc5c(Br)cccc45)c3)oc2cc1C | 0.04 | x
CC1CCN(C(=O)CNC(=O)c2ccc(F)cc2)CC1 | x | -0.25
Cc1cccc(NC(=O)C(F)(F)F)c1C(=O)O | -0.27 | x

New compounds follow:
SMILES | CapD inh | AID504770
O=C(c1ccc(Cl)c(Cl)c1)N1CCC(F)(CO)CC1 | -0.33 | -1.4
COc1ccc2nc(NC(=O)c3ccoc3C)sc2c1 | 7.1 | -0.4
Cc1cc(C)cc(NC(=S)N(CCN(C)C)C2CCN(C(C)C)CC2)c1 | 42 | -0.85
COc1ccc(-c2nc3ccc(C(=O)NCc4ccco4)cc3nc2-c2ccc(OC)c(OC)c2)cc1OC | -1.1 | -0.75
CSc1nc(CSc2ccccc2)nc(N)c1C#N | 0.44 | 0.8
CCOC(=O)c1sc(-c2ccccc2)cc1NC(=O)c1cc2ccccc2oc1=O | 0.34 | x
Cn1cnnc1Sc1nc2c(c(=O)n(C)c(=O)n2C)n1Cc1cc2c(cc1Cl)OCO2 | 0.065 | x
CN(c1ccc(OCC(=O)NCc2ccncc2)cc1)S(=O)(=O)c1cccs1 | x | -0.2
O=C(CSc1nnc(-c2ccc(Cl)cc2)o1)N1CCc2ccccc2C1 | x | 1.2
Cc1noc(C)c1-c1nnc(-c2cccc(Cl)c2)o1 | 0.44 | -0.15
CN(C(=O)c1noc2c1COc1ccccc1-2)c1cccc(C(F)(F)F)c1 | -0.26 | 0.25
COc1cc(OC)c(OC)cc1/C=C1\N=C(c2ccc(Br)cc2)OC1=O | 0.1 | x
CCC(C1=Nc2ccccc2C(c2ccccc2)(c2ccccc2)O1)N1CCCCC1 (stereo not given) | -0.24 | x
COc1ccc(SCC(=O)c2cn(CCC#N)c3ccccc23)cc1 | x | -0.4
COc1ccc(CNC(=O)COc2ncnc3ccccc23)cc1 | x | 0.2
N#CCCN1CCN(CCC#N)CC1 | 0.02 | 1.1
CN1CCOc2cc(S(=O)(=O)N3CCCC3c3ccc(F)cc3)ccc21 (stereo not given) | 2.1 | 0
CCOC(=O)C1=NN(c2ccc(C)cc2)C2(S1)c1ccccc1C(c1ccc(CC)cc1)=NN2c1ccccc1 (stereo not given) | -0.38 | x
CCN(CC)C(=O)CSc1nc2c(cc1C#N)CCCC2 | 0.57 | -0.05
NC(=O)CCn1nc(-c2ccccc2)c2ccccc2c1=O | -0.27 | -1.4

(further entries)
SMILES | CapD inh | AID504770
COC(=O)Cn1ncc2ccccc2c1=O | -0.32 | -0.5
CN1CCN(S(=O)(=O)Cc2ccc(Cl)cc2)CC1 | -0.3 | -1.8
Cc1ccc(C)c(S(=O)(=O)n2ncc(C#N)c2N)c1 | x | -0.5
CS(=O)(=O)N1CCc2cc(C(=O)OCC(=O)c3ccccc3)ccc21 | x | 1.9
CC(C)(c1ccc(Oc2ccc(C(=O)O)c(C(=O)O)c2)cc1)c1ccc(Oc2ccc(C(=O)O)c(C(=O)O)c2)cc1 | -2.9 | x
CC1=NN(C(=O)c2ccccc2)C(O)(c2ccc(Br)cc2)C1 (stereo not given) | -0.3 | x
O=C(C1CCN(c2ncnc3c2sc2cccc(F)c23)CC1)N1CCCCCC1 | 2.5 | 0.15
FC(F)(F)c1cccc(Nc2nc3nonc3nc2Nc2cccc(C(F)(F)F)c2)c1 | -0.86 | x
CCN(CC)S(=O)(=O)c1ccc(C(=O)NC2=NCCS2)cc1 | x | -1.9
OC(CSc1ccc(F)cc1)CN1CCN(c2cccc(C(F)(F)F)c2)CC1 (stereo not given) | -0.11 | 0.8
COc1ccc2c(CC(=O)N[C@@H](Cc3c[nH]c4ccccc34)C(=O)O)coc2c1 | x | -0.15
CCOC(=O)c1c(NC(=O)c2ccccc2F)sc(C(=O)Nc2ccc(OC)cc2OC)c1C | 0.3 | x
CCOc1ccc(C(=O)COC(=O)C23CCC(=O)N2c2ccccc2C(=O)N3C)cc1 (stereo not given) | x | -0.1
c1ccc2c(CN3CCN(Cc4c[nH]c5ccccc45)CC3)c[nH]c2c1 | 4 | 0.8
COc1ccccc1Cn1c(=O)[nH]c2cccnc21 | -0.27 | -1.6
Cc1cccc(-c2nc3c(cnn3-c3ccccc3)c(=O)n2-c2ccccc2)c1 | -0.26 | -0.7
NC(=O)c1nn(Cc2ccccc2)c(=O)c2ccccc12 | x | 1.4
O=C(CSc1nc2ccsc2c(=O)n1CC1CCC(C(=O)O)CC1)c1ccc(F)cc1 (stereo not given) | -0.42 | -1

For convenience, some entries already given:
SMILES | CapD inh | AID504770
COc1ccccc1NC(=O)c1sc(=S)n(-c2cc(C)ccc2F)c1N | -0.23 | x
COc1ccc(C)cc1S(=O)(=O)NC1CC1 | -0.24 | -0.7
CO[C@@H]1[C@@H](OC2OC(C)C(OC3CC(C)(O)C(OC(=O)CC(C)C)C(C)O3)C(N(C)C)C2O)[C@@H](CC=O)C[C@@H](C)[C@@H](O)/C=C/C=C/C[C@@H](C)OC(=O)C[C@H]1OC(C)=O (stereo not given in full) | 0.01 | x
CSc1nc2c(sc(=S)n2-c2ccccc2C)c2nc3ccccc3n12 | -0.24 | x
O=C(/C=C/c1ccc2c(c1)OCO2)N/N=C/c1c[nH]c2cc(OCc3ccccc3)ccc12 | 0.58 | x
